AID504770 – E. coli YBA685 growth inhibition, screen for V. cholerae RctB inhibitors | E. coli YBA685 rctB-dependent plasmid, OD600 growth, 3 h; active compounds read low | z-score (test concentration not listed) | 130,000 tested, 0.27% active | AID 504770;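 active = z-score under -2 on both plates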;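 also: wells of about 30 µL received 100 nL stock; score is relative to mean and SD of the test wells; the first replicate is given; strong numbers were not always called active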
CapD inh – blocks the Bacillus anthracis CapD enzyme; purified CapD enzyme, fluorescence intensity read-out; active compounds read low; some hits fall short of the stated cut; z-score (no concentration beside the values); 140,000 tested, 0.23% active;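 active = z-score under -4 in either of two replicates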;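 also: stock transfer was 100 nL into about 40 µL; score is relative to mean and spread of the plate; one replicate is shown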
* hit, by the source's call.

What do the screens show for `O=c1/c(=C/c2ccc(O)c(Cl)c2)sc2nc3ccccc3n12`?
AID504770: 1.8; CapD inh: 0.41

Results for CC(=O)c1ccc(NC(=O)CSc2nc3ccc(NC(=O)CCc4ccccc4)cc3s2)cc1 ?
CapD inh: 0.61

Results for O=C(Cc1ccccc1)Nc1nc2nc(-c3ccccc3)cc(=O)n2[nH]1 ?
AID504770: 0.15; CapD inh: 1.3

What do the screens show for `Cn1nnnc1SCC1=C(C(=O)O)N2C(=O)C(NC(=O)C(O)c3ccccc3)C2SC1` (stereo not drawn)?
CapD inh: -0.56

Results for O=C(CSc1nnc(C2CCCCC2)o1)c1ccc[nH]1 ?
AID504770: -1.2

What do the screens show for `CSc1ccccc1C(=O)NCc1n[nH]c(=O)c2ccccc12`?
AID504770: -0.75

How did Cc1cccn2c(=O)c(/C=N/NCCC#N)c(Sc3nc4ccccc4s3)nc12 do in these assays?
AID504770: 0.55

Results for Cc1ccc(C)n1-c1ccc(C(=O)O)cc1 ?
CapD inh: -13*

How did COc1ccc(CNC(=O)CCn2c(=O)c3sccc3n(Cc3cc(C)ccc3C)c2=O)cc1 do in these assays?
AID504770: -0.5; CapD inh: -0.52

Results for CN(C)CCNC(=O)c1cccn(Cc2cccc(C(F)(F)F)c2)c1=O ?
CapD inh: 72

Results for Cc1cc(C(=O)CSc2nc(N)c(C#N)cc2C#N)c(C)n1Cc1ccc(F)cc1 ?
AID504770: 0.45

What do the screens show for `CN1C(=O)/C(=C\c2ccc(C(=O)NCc3ccco3)cc2)SC1=S`?
AID504770: 0.15

What do the screens show for `COc1ccc(CC(=O)OCC(=O)N2CCCC(C)C2)cc1` (stereo not drawn)?
AID504770: -0.15

What do the screens show for `Nc1nc(=S)nc(C2CCC2)[nH]1`?
AID504770: -0.1

What do the screens show for `CSc1nc2c(ccc3ccccc32)o1`?
AID504770: 0.5; CapD inh: 6.3

Overlap with the part before: three entries, followed by the next part.
What do the screens show for `COc1ccc(CC(=O)OCC(=O)N2CCCC(C)C2)cc1` (stereo not drawn)?
AID504770: -0.15

What do the screens show for `Nc1nc(=S)nc(C2CCC2)[nH]1`?
AID504770: -0.1

What do the screens show for `CSc1nc2c(ccc3ccccc32)o1`?
AID504770: 0.5; CapD inh: 6.3

What do the screens show for `O=C(COc1ccccc1)Nc1ccccc1NC(=O)COc1ccccc1`?
CapD inh: -0.055

How did COc1ccc(/C=[N+](\C)[O-])cc1OC do in these assays?
AID504770: 0

Results for CCOC(=O)c1cn(CC(=O)Nc2ccccc2)nn1 ?
AID504770: -0.4; CapD inh: -2.5

How did O=C(Nc1ccccc1)OC1CCS(=O)(=O)C1 (stereo not drawn) do in these assays?
AID504770: -0.65; CapD inh: 0.11

Results for Nc1nc(SCC(=O)C23CC4CC(CC(C4)C2)C3)nc(-c2ccncc2)n1 ?
AID504770: -0.7

How did NC(=O)COC(=O)c1ccc(S(=O)(=O)N2CCCC2)cc1 do in these assays?
AID504770: -1

Results for CC(O)Cc1nsc(NC(=O)c2cccs2)n1 (stereo not drawn) ?
AID504770: -0.5

How did O=C(NC1CC1)c1cc2ccccc2o1 do in these assays?
AID504770: -0.15; CapD inh: 0.04

Results for Cc1ccc(-c2cc3c4c(C)n(C)c(C)c4c(C)nn3c2)o1 ?
AID504770: -0.65; CapD inh: 0.25

Results for COc1ccc(CCNC(=O)/C=C/c2ccc(F)cc2)cc1OC ?
AID504770: -0.8; CapD inh: -0.27

How did COC(=O)c1[nH]c2cscc2c(=O)c1C(=O)OC do in these assays?
AID504770: -0.15; CapD inh: 101

How did N=C(N)SCC1CN=C(Nc2ccccc2)S1 (stereo not drawn) do in these assays?
AID504770: -0.05; CapD inh: -1

What do the screens show for `N=C1S/C(=C\c2ccc(-c3ccccc3[N+](=O)[O-])o2)C(=O)N1c1ccc2c(c1)OCO2`?
CapD inh: 0.28

What do the screens show for `CCOC(=O)C1=C(C)N=c2s/c(=C3\C(=O)N(CC(N)=O)c4ccccc43)c(=O)n2C1c1ccccc1` (stereo not drawn)?
CapD inh: -0.43

How did COc1ccc2nc(SCc3cnc(C)nc3N)[nH]c2c1 do in these assays?
AID504770: 0.2; CapD inh: -0.075

Grouped by structure, those above with a thiophene ring, fused or not
How did COc1ccc(CNC(=O)CCn2c(=O)c3sccc3n(Cc3cc(C)ccc3C)c2=O)cc1 do in these assays?
AID504770: -0.5; CapD inh: -0.52

Results for CC(O)Cc1nsc(NC(=O)c2cccs2)n1 (stereo not drawn) ?
AID504770: -0.5

How did COC(=O)c1[nH]c2cscc2c(=O)c1C(=O)OC do in these assays?
AID504770: -0.15; CapD inh: 101

Continuation:
What do the screens show for `C=CCN1C(=O)/C(=C2/Sc3ccccc3N2C)SC1=S`?
CapD inh: -0.64

How did CCOC(=O)CN1CC23C=CC(O2)C(C(=O)NCc2ccccc2OC)C3C1=O (stereo not drawn) do in these assays?
AID504770: -0.85; CapD inh: -0.21

What do the screens show for `CCC(C)NC(=O)C1c2ccccc2C(=O)N1Cc1ccc(F)cc1` (stereo not drawn)?
AID504770: 2.1; CapD inh: -0.2

What do the screens show for `CN(c1ncc(C(F)(F)F)cc1Cl)N1C(=O)C2C3C=CC(C3)C2C1=O` (stereo not drawn)?
CapD inh: -0.16

What do the screens show for `COc1ccc(OCCNC(=O)OCCC(C)c2ccccc2)cc1` (stereo not drawn)?
CapD inh: 0.08

How did CCc1nnc(NC(=O)C2=CCN(S(=O)(=O)c3ccc(F)cc3)CC2)s1 do in these assays?
AID504770: 0.1; CapD inh: -0.22

Results for COc1ccc(C(=O)CN2CCN(S(=O)(=O)c3ccc(C(C)C)cc3)CC2)cc1OC ?
AID504770: 0.95; CapD inh: -0.24

Results for O=c1c2oc3cccc4c3n(c=2c(=O)c2ccccc12)CCC4 ?
AID504770: 0.45; CapD inh: -0.16

What do the screens show for `CC1=CCC2C(=O)N(C(CC(C)C)C(=O)O)C(=O)C2C1` (stereo not drawn)?
AID504770: 2.4; CapD inh: -0.5

What do the screens show for `O=C(CC1Oc2ccccc2NC1=O)Nc1ccccc1Br` (stereo not drawn)?
AID504770: 2.5; CapD inh: -0.29

What do the screens show for `O=C1c2nc3cc(-c4ccco4)[nH]n3c(=O)c2CN1C1CCCCC1`?
AID504770: -1.1; CapD inh: 111

What do the screens show for `CC(C)n1c2ccc(Cl)cc2c2nc3ccccc3nc21`?
AID504770: -0.45; CapD inh: -0.3

How did O=C(CC(Sc1ccccc1)c1ccc2c(c1)OCO2)c1ccco1 (stereo not drawn) do in these assays?
AID504770: -0.25

Results for CCCCn1c(COc2cc(C)cc(C)c2)nc2cc(S(N)(=O)=O)ccc21 ?
AID504770: -1

Results for Cc1sc(-c2ccc(Cl)cc2)nc1CC(=O)N1CCC(C(O)(c2ccccc2)c2ccccc2)CC1 ?
CapD inh: 31

Results for COc1cc(OC)c(NC(=O)c2sc3ncn(CC(=O)Nc4cccc(C(F)(F)F)c4)c(=O)c3c2C)cc1Cl ?
CapD inh: -0.66

Results for Fc1ccc(CSc2ncnc3c2oc2ccccc23)cc1 ?
AID504770: 2.5

Results for O=C(NCCc1ccccc1)c1ccco1 ?
CapD inh: 0.6

Results for CSc1nccc(-c2cccnc2)n1 ?
AID504770: 0.55; CapD inh: 0.08

Results for COC(=O)c1ccccc1NC(=O)C1CC(c2cccc(Br)c2)=NO1 (stereo not drawn) ?
AID504770: -0.3; CapD inh: 0.27

How did O=C1Nc2ncccc2OC1CCO (stereo not drawn) do in these assays?
AID504770: -0.7; CapD inh: -0.39

How did COCCOC(=O)C1=C(C)NC(=O)CC1c1ccccc1Cl (stereo not drawn) do in these assays?
CapD inh: -0.56

How did CC(CCC(=O)O)C1CC[C@H]2C3CCC4CC(=O)CCC4(C)[C@H]3CC(=O)C12C (stereo partly drawn) do in these assays?
AID504770: -0.7; CapD inh: -0.71

What do the screens show for `CC1(C)CC(=O)C=C(SCc2c(Cl)cccc2Cl)S1`?
AID504770: -0.9; CapD inh: -0.44

How did O=C(NCc1ccccn1)c1cc2c(=O)c3ccccc3oc2nc1C(F)(F)F do in these assays?
CapD inh: 0.44

Results for Nc1nnc(SCC(=O)Nc2nnc(SCC(=O)Nc3ccc(Br)cc3)s2)s1 ?
CapD inh: 0.21

How did Cc1ccc(C)c(S(=O)(=O)Nc2ccc3oc(C)c(C(=O)OC(C)C)c3c2)c1 do in these assays?
CapD inh: -0.14

What do the screens show for `CC1=NOC(c2ccccc2O)N(C)C1(C)C` (stereo not drawn)?
AID504770: -0.05; CapD inh: -0.21

How did Cc1ccc(S(=O)(=O)N2CCN(Cc3ccccc3)CC2)cc1 do in these assays?
CapD inh: -0.43

What do the screens show for `NC(=O)c1cccc(S(=O)(=O)N2CCCCC2)c1`?
AID504770: -0.7

What do the screens show for `CCc1cccc(NC(=O)c2cc3cc4cc(OC)ccc4nc3s2)c1`?
AID504770: -0.05; CapD inh: 0.32

How did Cc1ccc(-c2c(C(=O)N(CC(C)C)CC(C)C)oc(=O)c3ccccc23)cc1 do in these assays?
AID504770: -0.5; CapD inh: 7.5

Results for CCN(Cc1ccccc1)C(=O)Cn1c(=O)cc(C)c2c(C)nn(C)c21 ?
AID504770: 1.3; CapD inh: 0.12

How did CC(C)N(CCc1ccncc1)C(=O)Nc1ccc(Cl)c(Cl)c1 do in these assays?
AID504770: -0.05; CapD inh: 0.2

Results for CCCSc1ccc(N)nc1 ?
AID504770: -0.9; CapD inh: 55

How did CC12CCCC(=O)N1C(COC(=O)NNC(=O)c1ccccc1-n1cccc1)C(c1ccccc1)O2 (stereo not drawn) do in these assays?
CapD inh: -0.6

How did Cc1c(N2C(=O)/C(=C/c3ccc(Br)cc3)SC2=S)c(=O)n(-c2ccccc2)n1C do in these assays?
CapD inh: -0.6

What do the screens show for `Cc1ccccc1OCCn1cc(/C=C(\C#N)C(=O)NC2CC2)c2ccccc21`?
AID504770: 0.1

What do the screens show for `CCOC(=O)c1c(C)oc2cc(Br)c(OCc3ccc(Cl)cc3)cc12`?
CapD inh: -0.27

What do the screens show for `O=C(NCc1cccnc1)c1cc(-c2ccccc2F)no1`?
AID504770: 0.55; CapD inh: -0.18

Results for O=c1c2ccccc2[nH]c(=S)n1CC1CCCC1 ?
AID504770: 3; CapD inh: -0.005

What do the screens show for `COc1cccc(-c2cc(C(F)(F)F)n3ncc(C(=O)NC4CCCC4)c3n2)c1`?
AID504770: 0.45; CapD inh: 0.21

What do the screens show for `CC1(C)S[C@@H]2C(N3C(=O)[C@@H](c4ccccc4)NC3(C)C)C(=O)N2[C@H]1C(=O)O` (stereo partly drawn)?
AID504770: -2; CapD inh: 1

What do the screens show for `CCOC(=O)C1=C(N)N(c2ccccc2)C2=C(C(=O)CC(C)(C)C2)C1c1cc(OC)c(OC)c(OC)c1` (stereo not drawn)?
CapD inh: 0.65

What do the screens show for `O=C(CCCN1C(=O)/C(=C/c2ccccc2)SC1=S)N1CCOCC1`?
AID504770: -1.4; CapD inh: -0.24

What do the screens show for `O=C(CC(=O)N=Nc1c(O)[nH]c2ccccc12)N=Nc1c(O)[nH]c2ccccc12`?
AID504770: 0.9; CapD inh: -3.4

What do the screens show for `Cc1ccc(Cc2cnc(NC(=O)CCN3C(=O)/C(=C/c4ccc(F)cc4)SC3=S)s2)cc1`?
CapD inh: -0.21

Results for CCN1C(=O)CC(C(=O)NCCc2ccc(S(N)(=O)=O)cc2)SC1=Nc1ccc(OC)cc1 (stereo not drawn) ?
CapD inh: -0.15

Results for OCCCc1cn(-c2ccccc2)c2ccccc12 ?
AID504770: -1.1; CapD inh: -0.065

What do the screens show for `N#Cc1c(NC(=O)COC(=O)c2ccccc2)oc(-c2ccccc2)c1-c1ccccc1`?
AID504770: -0.65

What do the screens show for `Cc1cccc2sc(NC(=O)c3sc4ncn(CC(=O)Nc5cccc(C(F)(F)F)c5)c(=O)c4c3C)nc12`?
CapD inh: 6.9

How did Cc1ccc(-n2c(C)cc(/C=N/NC3CCS(=O)(=O)C3)c2C)cc1 (stereo not drawn) do in these assays?
AID504770: 1.4

How did CN1CCN(n2c(-c3ccc(Cl)cc3)csc2=Nc2ccccc2)CC1 do in these assays?
AID504770: 0.8; CapD inh: 0.64

What do the screens show for `Cc1ccc(N/C=C/c2onc(-c3ccccc3Cl)c2C#N)cc1C`?
CapD inh: 1.2

Results for Cc1n[nH]c(C)c1CCc1nc2c3ccccc3nc(NCc3ccccc3)n2n1 ?
AID504770: -0.75; CapD inh: 0.12

How did O=C(CCc1nc2ccccc2o1)Nc1ccccc1C(=O)NC1CCCC1 do in these assays?
AID504770: 1.6

How did CCOP(=O)(OCC)c1nc(-c2ccc(Cl)cc2Cl)oc1N1CCOCC1 do in these assays?
CapD inh: 35

How did Clc1ccc(Sc2cc(Cl)c(-c3ccccc3)nn2)c(Cl)c1 do in these assays?
CapD inh: -0.36

What do the screens show for `CC(C)NC(=O)c1cc2c(s1)CCC2`?
AID504770: -0.55; CapD inh: -0.42

What do the screens show for `Cc1nn(CC(=O)NCCCN2CCOCC2)c(=O)c2c1sc1ccccc12`?
AID504770: -0.7; CapD inh: 3.9

What do the screens show for `CC(C)CC1CC(=O)NC(N)=N1` (stereo not drawn)?
AID504770: 0.6; CapD inh: 0.44

Structures shown so far that have a cyano group (5):
How did Cc1cccn2c(=O)c(/C=N/NCCC#N)c(Sc3nc4ccccc4s3)nc12 do in these assays?
AID504770: 0.55

Results for Cc1cc(C(=O)CSc2nc(N)c(C#N)cc2C#N)c(C)n1Cc1ccc(F)cc1 ?
AID504770: 0.45

What do the screens show for `Cc1ccccc1OCCn1cc(/C=C(\C#N)C(=O)NC2CC2)c2ccccc21`?
AID504770: 0.1

What do the screens show for `N#Cc1c(NC(=O)COC(=O)c2ccccc2)oc(-c2ccccc2)c1-c1ccccc1`?
AID504770: -0.65

What do the screens show for `Cc1ccc(N/C=C/c2onc(-c3ccccc3Cl)c2C#N)cc1C`?
CapD inh: 1.2

Bioassay records (PubChem)

The order is random (roughly 0.41% active in at least one column).
